Source: PubChem
Vaccinia mCherry: inhibitors of vaccinia virus infection (mCherry reporter signal); 310,000 compounds, 0.63% hits; Vaccinia virus mCherry reporter infection, fluorescence; about a quarter of the inactives have no number; Potency, µM (titrated, usually from 36.5 µM), inactives show at the top dose activity change, negative = inhibition, usual class: inhibitors; AID 720579; active = well fitted inhibition curve with a large enough effect; inconclusive = small, poorly fitted or top-dose-only effect; inactive = no such curve, though single readings can be large or run the other way; tested in A549 cells; further: nearly all actives have a fitted effect of over 35% in size; inactives centre near -10
VACV Venus inh: vaccinia inhibition (Venus reporter) | Potency, µM (series often up to 36.5 µM), without a hit: at the top dose activity change, negative = inhibition, usual class: inhibitors | Vaccinia virus Venus reporter expression, fluorescence | 330,000 compounds, 0.46% hits | AID 720580; active means well fitted inhibition curve with a large enough effect; inconclusive means small, poorly fitted or top-dose-only effect; inactive means no such curve, though single readings can be large or run the other way; tested in A549 cells; further: nearly all actives have a fitted effect of over 30% in size; inactives centre near -10
* hit, by the source's call; i = inactive; ? = inconclusive; . = not tested or not shown; & = joins results of further samples; [ ] = another dose, or the depositor's remark. On the % scale 0 is the no-effect control and ±100 the full control effect; potency means the concentration at half of the fitted maximal effect.

SMILES	Vaccinia mCherry	VACV Venus inh
COc1ccc(OC)c(CNS(=O)(=O)c2cc(-c3onc(C)c3C)ccc2C)c1	-4.9%	-6.9%
CCC(C(=O)c1ccccc1)N(C(=O)c1ccccc1Cl)N1C(=O)C2C3C=CC(C3)C2C1=O (centres undefined)	-11.7%	-4.4%
CCc1ccc(NC2=NCC(=O)N2c2ccc3c(c2)OCCO3)cc1	-24.4%	-18.9%
COc1ccc(C2(C)NC(=O)N(CC(=O)NCc3ccccc3)C2=O)cc1OC (centres undefined)	i	-4.7%
CCC(CC)c1nnc(NC(=O)Oc2ccccc2)s1	i	-10.5%
Cc1ccc2oc(=O)n(CCNC(=O)Nc3ccc(C)c(F)c3)c2c1	-6.8%	-2.1%
CS(=O)(=O)N1CCc2cc(C(=O)OCC(=O)c3ccccc3)ccc21	i	-21.1%
COc1cccc(-c2oc3ccc(C)cc3c(=O)c2O)c1	-11.8%	-7.7%
CN1CCN(S(=O)(=O)Cc2ccc(Cl)cc2)CC1	-12.1%	-8.9%
CSc1nc(-c2ccc(N(C)C)cc2)c(C#N)c(=O)n1C	?	?
COC(=O)c1ccc(CSc2nnc(CS(=O)Cc3ccc(Br)cc3)n2-c2ccccc2)cc1 (centres undefined)	-4.3%	-9.4%
CC(=O)N(C)c1ccc(NC(=O)/C=C/c2ccccc2Cl)cc1	.	-18.5%
Cc1cccc(N2C(=O)C(O)=C(C(=O)c3cccs3)C2c2ccc(C(C)C)cc2)n1 (centres undefined)	-21.6%	-17.5%
O=C(NCCc1ccccc1)[C@@H]1CC=C[C@@H]2CCN(Cc3ccccc3)C(=O)[C@@H]21	-1.0%&-23.5%	-11.1%&-12.1%
O=C(Cn1c(-c2cccs2)cc2cc(F)ccc21)N1CCN(c2cccc(Cl)c2)CC1	-3.9%	-10.8%
COc1ccc(-c2nnc(SCC(=O)Oc3ccc(C)cc3)o2)cc1	-7.2%	-0.5%
O=c1cc(N2CCc3ccccc32)[nH]c(=O)n1-c1ccc(Cl)cc1	i	-2.6%
CC(C)[C@H](Nc1ccc(S(=O)(=O)N2CCOCC2)cc1[N+](=O)[O-])C(=O)OCC(=O)N(C(C)C)C(C)C	-21.9%	-13.8%
COc1ccccc1Cc1c(-c2ccccc2)nc2ccc(Br)cn12	i	-1.9%
Cc1cccc(NC(=O)C2CCN(C(=O)NC3CCCCC3)CC2)c1	i	-15.5%
CCC(=O)N1c2ccc(S(=O)(=O)CCC(=O)NCc3ccc(OC)cc3)cc2CC1C (centres undefined)	2.7%	-1.8%
Cc1ccc(C)c(NC(=O)Cn2c(=O)n(Cc3ccc4c(c3)OCO4)c(=O)c3ccccc32)c1	-12.9%	-5.0%
Cc1ccccc1CNC(=O)c1cnc2sc(N3CCC(C)CC3)nn2c1=O	-9.5%	-6.4%
COc1ccc2[nH]c(=O)c(CN(Cc3nnnn3Cc3ccccc3)CC3CCCO3)cc2c1 (centres undefined)	-23.6%	-11.7%
CC1=NN(C(=O)c2ccccc2)C(O)(c2ccc(Br)cc2)C1 (centres undefined)	-15.6%[7.34 µM]	-7.2%[7.34 µM]
COc1ccc(CNC(=O)CS(=O)Cc2nc(-c3ccc(OC)c(OC)c3)oc2C)cc1 (centres undefined)	-13.8%	-2.9%
O=C(Nc1nnc([C@@H]2C[C@H](O)[C@@H](CO)O2)s1)Nc1ccccc1F	-22.4%	5.8%
CCOC(=O)N1CCN(c2c(NCCCN(CC)CC)c(=O)c2=O)CC1	-13.7%	-5.4%
N#Cc1c(C(F)(F)F)cc(-c2ccccc2)nc1SCc1nc(N)nc(N2CCOCC2)n1	-14.4%	17.5%
CC(C)(C)n1nc2c(c1NC(=O)c1cc3ccccc3o1)CS(=O)(=O)C2	-9.6%	-7.6%
Cc1cccc(OCC(=O)Nc2cccc3nsnc23)c1	i	-5.4%
COc1ccc(C(=O)CSc2nc3cc(C(=O)NC4CCCC4)ccc3c(=O)n2CC2CCCO2)cc1 (centres undefined)	-29.5%	-27.9%
COc1cccc([C@@H]2CC=C(C(=O)O)[C@H](c3ccc(Br)cc3)N2S(=O)(=O)c2ccc(C)cc2)c1	-6.1%	-6.7%
O=S(=O)(c1cc(F)ccc1F)N1CCN(c2ncccn2)CC1	-20.7%	-16.3%
NC(=O)CCn1nc(-c2ccccc2)c2ccccc2c1=O	i	-9.1%
COc1ccc(N2CC(C(=O)NC3CCSC3=O)CC2=O)cc1 (centres undefined)	5.5%	8.5%
CC(C)OCCCNC(=O)CN1C(=O)/C(=C/c2ccccc2)Sc2ccccc21	i	-16.0%
C=CCn1c(Cc2cccs2)nnc1SCC(=O)NCc1ccco1	.	-17.1%
N#CCCN1CCN(CCC#N)CC1	-11.5%	-7.3%
CC(C)(C)c1ccc(OC(=O)c2cccnc2)cc1	-14.2%	-5.1%
COc1cc(C)c(NC(=O)C(=S)NCCc2ccccc2)cc1C	-12.4%	-1.4%
CC(C)(C)OC(=O)C1=CC[C@@H](c2ccc(Cl)c(Cl)c2)N(S(=O)(=O)c2ccc(F)cc2)[C@H]1c1cccc(F)c1	30.8%[activator]	-1.3%
COc1ccc(OC)c(CCNC(=O)Cn2nc(C)n3c(cc4sccc43)c2=O)c1	5.4%	-10.5%
Cc1cc(/C=N/NC(N)=O)c(C)n1-c1ccc(F)cc1	-4.5%	21.0%
O=C(COC(=O)c1cccc(NC(=O)c2ccc(Br)cc2)c1)c1ccc(Cl)cc1	?	-29.4%
Cc1ccc(-c2nc3cnccn3c2Nc2ccc3c(c2)OCCO3)o1	-14.8%	-4.9%
CSCC[C@H](NC(=O)N1C[C@H]2C[C@@H](C1)c1cccc(=O)n1C2)C(=O)Nc1ccc(NC(C)=O)cc1	-1.6%	-9.6%
CCc1cc(/C(Cc2csc(C)n2)=N/O)c(O)cc1O	.	?
Cc1cc(C)c(OCC(=O)Nc2nnc(-c3ccco3)o2)c(C)c1	-4.8%	-5.2%
CC(=O)N1CCc2cc(S(=O)(=O)NC(C(=O)NCc3ccccc3)C(C)C)ccc21 (centres undefined)	-11.2%	0.4%
Cc1ccc(C(=O)OC(C)C(=O)NCc2ccc3c(c2)OCO3)cc1S(=O)(=O)N1CCOCC1 (centres undefined)	-7.6%	-17.9%
O=c1c2ccccc2nc2n1C(CSc1ccccc1)CS2 (centres undefined)	-14.7%	1.5%
C[n+]1ccnc2cc(Cl)ccc21	11.2µM*	2.24µM*
COc1ccccc1Cn1c(=O)[nH]c2cccnc21	-13.9%	-13.4%
COCCN(CCOC)c1ncnc2c1c(-c1ccccc1)cn2-c1ccc(C)c(Cl)c1	-11.0%	-13.2%
CCOc1ccc(S(=O)(=O)N(CC(=O)NCCSc2ccccc2)c2ccccc2)cc1	4.5%	4.9%
COCc1ccc(CN2CCC(n3nccc3NC(=O)c3ccc4c(c3)OCO4)CC2)o1	-5.2%	-4.1%
CCN(CC)S(=O)(=O)c1ccc(C(=O)NC2=NCCS2)cc1	-5.0%	-6.9%
CN1CCC(=NNC(=O)C(=O)NC(C)(C)C)CC1	-14.7%	-9.4%
COc1ccccc1N1CCN(S(=O)(=O)c2ccc3c(c2)CCCN3C(C)=O)CC1	-0.9%	-9.4%

5 compounds drawn at random from the list so far, as already listed:
SMILES	Vaccinia mCherry	VACV Venus inh
COc1ccc(OC)c(CCNC(=O)Cn2nc(C)n3c(cc4sccc43)c2=O)c1	5.4%	-10.5%
CCC(CC)c1nnc(NC(=O)Oc2ccccc2)s1	i	-10.5%
COc1ccccc1Cn1c(=O)[nH]c2cccnc21	-13.9%	-13.4%
COc1ccc(-c2nnc(SCC(=O)Oc3ccc(C)cc3)o2)cc1	-7.2%	-0.5%
CC(C)(C)OC(=O)C1=CC[C@@H](c2ccc(Cl)c(Cl)c2)N(S(=O)(=O)c2ccc(F)cc2)[C@H]1c1cccc(F)c1	30.8%[activator]	-1.3%

Carrying on:
SMILES	Vaccinia mCherry	VACV Venus inh
CC(C)(C)OC(=O)N1CCN(C(=O)Cn2cc(CCO)nn2)CC1	-14.2%	-4.6%
CCOC(=O)CCCNC(=O)CN1C(=O)NC(c2ccccc2)(c2ccccc2)C1=O	i	9.3%
O=C(Nc1ccccc1N1CCOCC1)C1(c2ccc(Cl)cc2)CCC1	-0.3%	-13.6%
Cc1ccccc1N1CCN(S(=O)(=O)N(C)C)CC1	-7.5%	-8.7%
COc1cc(OC)c(NC(=O)CCc2c(C)nc3c4c(C)cc(C)nc4nn3c2C)cc1Cl	9.1%	-1.9%
CC(=O)Nc1cccc(-c2csc(C(O)c3ccc(F)c(F)c3)n2)c1 (centres undefined)	26.0%	-14.5%
Cc1ccc(N2C(=O)CN(Cc3ccccc3)C2=S)cc1C	-22.8%	-8.7%
O=C(COC(=O)Cc1ccc(Br)cc1)NCc1ccc(F)cc1	-2.7%	-1.9%
C=CC(COCc1ccccc1)N(C(=O)OC(C)(C)C)S(=O)(=O)c1ccccc1Br (centres undefined)	?	-14.3%
C/C=C\C(=O)Nc1cccc(C2=NOC3(C2)C[C@@H](C(N)=O)N(C(=O)c2ccccc2)C3)c1 (some centres undefined)	-13.3%	-8.9%
O=C(Nc1ccccc1)C1=C[C@H](c2ccc(C(F)(F)F)cc2)C[C@H](OCCCCO)O1	7.8%	-12.0%
CCN(CC)S(=O)(=O)c1cccc(NC(=O)CC2CCCC2)c1	-21.0%	-13.6%
O=Cc1c(NCc2ccc(F)cc2)c2ccccc2[nH]c1=O	i	-12.3%
C[C@H]1[C@H](NC(=O)C(=NOC(C)(C)C(=O)O)c2csc(N)n2)C(=O)N1S(=O)(=O)O	i	-17.8%
O=C1NC[C@H](CCCCN2C[C@H](Cc3ccccc3)N(Cc3ccccc3)C(=O)C2=O)N(CCc2ccccc2)C1=O	-7.9%	-4.7%

Whole records as entered above.
Cc1cc(/C=N/NC(N)=O)c(C)n1-c1ccc(F)cc1 as listed: Vaccinia mCherry: -4.5%; VACV Venus inh: 21.0%
COC(=O)c1ccc(CSc2nnc(CS(=O)Cc3ccc(Br)cc3)n2-c2ccccc2)cc1 (centres undefined) as listed: Vaccinia mCherry: -4.3%; VACV Venus inh: -9.4%

(next part)
SMILES	Vaccinia mCherry	VACV Venus inh
CC(=O)Nc1ccc(S(=O)(=O)Nc2ccccc2C(=O)N2CCCCC2)cc1	-16.9%	9.9%
Cc1ccccc1C(=O)NC(=S)NCCc1ccccc1	-18.9%	-12.1%
Cc1ccc2c(c1)N(CCC(=O)NCc1cccs1)C(=O)C(C)O2 (centres undefined)	-9.0%	-5.5%
O=C1CCC[C@@H]2C[C@@]3(C[C@@H]4CCN1[C@H]24)Nc1ccccc1NC3=NC1CCCCC1	i	-15.0%
Cc1[nH]c2ccc(F)cc2c1CCN(Cc1ccncc1)C(=S)Nc1cccc(F)c1	-14.0%	-10.1%
COc1ccc2nc(NC(=O)c3ccoc3C)sc2c1	-19.5%	-13.0%
O=C1COc2ccc(C(=O)COC(=O)c3ccc(S(=O)(=O)C(F)F)cc3)cc2N1	-16.0%	0.8%
Oc1ccc2ccccc2c1CN1CCN(c2ccccc2F)CC1	?	-2.2%
O=C(NCC1CCCO1)c1ccc2c(c1)C(=O)N(C1CCCCC1)C2=O (centres undefined)	i	-17.1%
O=C(CCNS(=O)(=O)c1cccs1)NCc1ccccc1	-14.8%	1.1%
O=C(CN(C(=O)CNC(=O)c1cccs1)c1ccc(F)cc1)NC1CCCC1	42.6%[activator]	14.3%
O=c1c2ccccc2[nH]c(=S)n1-c1cccc(C(F)(F)F)c1	i	-10.2%
CCc1ccc(/C=C2/SC(=S)N(CCC(=O)NCCCN3CCOCC3)C2=O)cc1	?	-12.4%
Cc1ccc(F)c(S(=O)(=O)NC(=O)C2(C)CCN2C(=O)Cc2ccccc2Cl)c1 (centres undefined)	i	-6.2%
O=c1cc2c(nn1Cc1ccc(Cl)cc1)-c1ccccc1CC2	?	-24.3%
C[C@H](CO)N1C[C@H](C)[C@@H](CN(C)S(=O)(=O)c2ccc(Oc3ccccc3)nc2)OCc2cn(nn2)CCCC1=O	-4.9%	1.2%
CC(Sc1nnc2ccccn12)C(=O)Nc1ccc(N2CCOCC2)cc1 (centres undefined)	i	-5.5%
CN(C)c1ccc(N/C=C/C(=O)C(C)(C)C)cc1	12.6%	9.7%
N#C/C(=C\c1cc(Br)c(O)c(Br)c1)c1nc2ccccc2c(=O)[nH]1	-11.0%	-2.7%
COc1ccc2[nH]c(=O)c(CN(C(C)=O)c3ccc(C)c(C)c3)cc2c1	-8.7%	-23.4%
CCCCN(CC)C(=O)CSc1nc2n[nH]c(C)c2c(=N)n1-c1ccc(CC)cc1	-25.1%	-20.4%
CCCCNC(=O)C1(C)CCCCN1C(=O)c1ccc(F)c(C)c1 (centres undefined)	i	-10.8%
COc1cc(NC(=O)Nc2cccn3nc(COCCO)nc23)cc(OC)c1OC	i	2.0%
CCOC(=O)[C@H]1[C@H]2COc3ccc(OC)cc3[C@@H]2N2C(=O)CN(C)C(=O)[C@@]12C	i	-15.9%
COCCNc1nc(=S)[nH]c2cc(OC)c(OC)cc12	-9.3%	-14.1%
CC(C)(C)c1ccc(OCCOc2ccc(C(C)(C)C)cc2NC=O)c(NC=O)c1	-0.4%	?
CCc1ccc2ncc(S(=O)(=O)c3ccc(C)c(C)c3)c(N3CCCC3)c2c1	-23.0%	-13.1%
COc1ccccc1N1CCN(c2cc(C)nc3nc(-c4ccc(Cl)cc4)nn23)CC1	-9.0%	5.3%
COc1ccccc1OCCCC(=O)Nc1ccc([N+](=O)[O-])cc1Br	-7.0%	-7.8%
O=C(c1cnn2c(C(F)(F)F)cc(-c3ccco3)nc12)N1CCCc2ccccc21	.	-6.1%
Cc1ccc2cc(C#N)c(SCc3nnc(-c4ccccc4[N+](=O)[O-])o3)nc2c1	-16.2%	-20.8%
